High-throughput results deposited in PubChem by Johns Hopkins Ion Channel Center.
KCNQ2 enhance: KCNQ2 (rat) channel potentiation; O88943; CHO-K1 KCNQ2, FluxOR thallium flux fluorescence; stronger effect = higher value; B-score at 10 µM; actives 0.54% (n = 310,000);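 active = fluorescence ratio B-score at least 3 SD of library B-scores, with initial fluorescence B-score within 3 SD, cut at about 5.3 in these data; same plate scores as AID 2156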;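 note: B-score of peak minus minimum over baseline fluorescence ratio after K+ and Tl+ stimulus; positive B-score means potentiation of KCNQ2 with more thallium influx and brighter signal; only the inactives scoring about 0 or higher are listed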
Target sequence (O88943 whole entry, looked up): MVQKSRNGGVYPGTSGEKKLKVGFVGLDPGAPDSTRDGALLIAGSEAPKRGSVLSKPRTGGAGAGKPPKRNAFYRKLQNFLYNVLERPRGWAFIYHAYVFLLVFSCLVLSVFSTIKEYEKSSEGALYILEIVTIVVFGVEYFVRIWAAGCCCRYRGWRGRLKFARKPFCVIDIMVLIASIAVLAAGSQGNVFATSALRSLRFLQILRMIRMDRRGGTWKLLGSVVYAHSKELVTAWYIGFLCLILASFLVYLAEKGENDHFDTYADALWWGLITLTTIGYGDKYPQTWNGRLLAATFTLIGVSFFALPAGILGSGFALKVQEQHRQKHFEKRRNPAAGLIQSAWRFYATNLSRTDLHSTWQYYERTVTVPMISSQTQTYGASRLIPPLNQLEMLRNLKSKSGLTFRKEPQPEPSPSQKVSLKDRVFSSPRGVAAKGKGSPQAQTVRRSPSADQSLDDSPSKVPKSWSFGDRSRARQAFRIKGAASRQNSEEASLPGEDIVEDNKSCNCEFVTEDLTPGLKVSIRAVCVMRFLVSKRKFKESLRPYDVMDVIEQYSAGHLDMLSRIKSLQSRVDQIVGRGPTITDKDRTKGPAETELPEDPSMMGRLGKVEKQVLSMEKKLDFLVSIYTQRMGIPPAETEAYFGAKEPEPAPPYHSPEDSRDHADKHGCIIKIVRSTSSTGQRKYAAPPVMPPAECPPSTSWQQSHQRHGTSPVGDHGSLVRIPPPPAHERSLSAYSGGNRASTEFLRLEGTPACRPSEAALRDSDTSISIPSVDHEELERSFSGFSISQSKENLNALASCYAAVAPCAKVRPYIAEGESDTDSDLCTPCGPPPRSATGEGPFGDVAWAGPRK
KCNQ2 enhance baseline: further read-out of KCNQ2 enhance, marked with its call; B-score; compound at 10 µM; measured here: initial fluorescence intensity artifact check;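 brightness before thallium and not channel activity; 0 = typical well and far values either way flag optical interference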
* hit, by the source's call. Not all compounds are listed; count on the stated rates, not on these rows.

SMILES | KCNQ2 enhance | KCNQ2 enhance baseline
CC1=NOC(=O)/C1=C\c1ccc2c(c1)OCO2 | 1 | -0.28
COCC(C)n1c(-c2ccc3c(c2)NC(=O)CO3)csc1=Nc1ccc(OC(F)F)cc1 (stereo not given) | 0.16 | 0.16
NNC(=O)c1ccc(-c2cccc([N+](=O)[O-])c2)o1 | 0.2 | -2.3
COc1cccc(C(=O)N(Cc2cc3cc(C)ccc3[nH]c2=O)CC2CCCO2)c1 (stereo not given) | 0.03 | -0.72
CCC(C)c1ccccc1N1CC(C(=O)N(C)CC(=O)Nc2cccc(F)c2)CC1=O (stereo not given) | 1.4 | 0.31
COc1cc(S(=O)(=O)Nc2cccc(C)c2)ccc1N=Cc1c(C)[nH]n(-c2ccccc2)c1=O | 0.03 | -1.3
CCOc1cc(C(=O)N/N=C\c2cn(CC)nc2C)cc(OCC)c1OCC | 0.58 | -0.11
Cc1cc(NC(=O)c2ccccc2F)n(-c2nc3ccccc3[nH]2)n1 | 1.1 | 0.35
CC(=O)C1=C(C)NC(SCC(=O)c2ccc(Cl)c(Cl)c2)=C(C#N)C1c1ccco1 (stereo not given) | 2.7 | -1.1
Cc1cc(C(=O)NNC(=O)COc2c(C)cc(Br)cc2C)n[nH]1 | 0.02 | -1.7
CC(C)c1ccc(NS(=O)(=O)c2cccc3cccnc23)cc1 | 0.25 | -0.91
Cc1c(CN2CCC(CO)(CCOc3ccccc3)CC2)c(=O)n(-c2ccccc2)n1C | 0.29 | 1.5
C/C(=N\Nc1nc(N)cc(Cl)n1)c1ccc(F)cc1 | 0.9 | 0.28
COC(=O)C1=C(C)NC2=C(C(=O)CCC2)C1c1cccs1 (stereo not given) | 0.37 | -0.34
CC(C)(CC(=O)O)CC(=O)Nc1ccc(Oc2ccc(C(C)(C)C)cc2)nc1 | 0.13 | 2.4
Cc1cccc(NC(=O)CSc2nc(C)c(CC(=O)c3ccc(Br)cc3)c(C)c2C#N)c1C | 0.02 | -0.13
CCC(CC)C(=O)NCc1ccc(Cl)cc1 | 1.1 | 0.71
COC(=O)c1ccc(CN2CCC(n3nccc3NC(=O)C3CC3)CC2)cc1 | 0.77 | 0.19
CCCN=C1N/C(=C\c2ccco2)C(=O)N1c1ccccc1 | 0.1 | 1.6
Cc1ccc(-n2nc3c4c(cccc4c2=O)-c2ccccc2-3)cc1 | 0.87 | 0.79
CC(/C=N/n1c(-c2ccccc2)n[nH]c1=S)=C\c1ccco1 | 0.17 | 2.1
COc1cccc(N2CCN(C3CC(=O)N(c4ccc(Cl)c(Cl)c4)C3=O)CC2)c1 (stereo not given) | 0.68 | -3.3
CCOC(=O)N1CCN(c2nnnn2-c2ccccc2)CC1 | 1.5 | -0.05
N#Cc1cnn(Cc2ccc(Cl)cc2)c1N | 0.16 | -0.16
CC(C)C(=O)N(c1ccc2oc(=O)sc2c1)S(=O)(=O)c1cccs1 | 1.5 | 0.56
C/C(=N\NC(=O)c1ccccc1)c1ccc(NC(=O)c2cccs2)cc1 | 0.5 | 0.71
COCCNC(=O)C(=O)NNS(=O)(=O)c1ccc(Cl)cc1 | 0.32 | -0.33
COc1ccccc1/C=C/C=c1\sc2nc(=O)c(Cc3ccccc3)nn2c1=O | 0.45 | 1.9
CC(Oc1ccccc1)C(=O)Nc1ccc(S(=O)(=O)N2CCCC2)cc1 (stereo not given) | 0.48 | -1.6
CN(C)S(=O)(=O)c1ccc2c(c1)c(=O)c(C(=O)N1CCOCC1)cn2C | 1.1 | 2
CN(C)C(=O)COc1ccc(Br)cc1 | 1.8 | -0.78
COC(=O)c1ccccc1NC(=O)CSc1ncccn1 | 1.1 | -0.02
COc1ccc(NS(=O)(=O)c2ccc3ccccc3c2)c2ncccc12 | 4.5 | 0.27
CN(Cc1ccccc1)C(=O)CN(c1ccccc1Cl)S(C)(=O)=O | 1.3 | 0.87
O=C(NCCO)c1c(O)c2cccc3c2n(c1=O)CC3 | 0.72 | 0.96
Cc1ccc2oc(=O)c3cc(C(=O)NCCCN4C(C)CCCC4C)sc3c2c1 (stereo not given) | 0.18 | 0.88
COc1cc(C(=S)N(C)C)ccc1O | 1.4 | -0.07
CCN(CC)C(=O)Cn1cc(S(=O)(=O)CC(=O)NCc2ccc3c(c2)OCO3)c2ccccc21 | 0.16 | 1
O=C(NCc1ccccc1)C1CCC(=O)N(CCN2CCOCC2)C1 (stereo not given) | 0.69 | -0.01
Cc1ccc(CNC(=O)Cc2cn(C)c3ccccc23)cc1 | 1.2 | 0
CC(C)(O)C#CC#CCN1CCOCC1 | 0.08 | 0.01
O=C(O)c1cc([N+](=O)[O-])ccc1C(=O)Nc1cccc([N+](=O)[O-])c1 | 0.53 | -0.99
COCCCn1c(SCC(=O)N2CCCC(C)C2)nnc1-c1ccco1 (stereo not given) | 0.18 | -2.4
CCOC(=O)c1sc(NC(=O)C2CCCCC2)nc1C | 1.4 | 1
O=C1CSC(c2cccc([N+](=O)[O-])c2)N1C1CC2CCC1C2 (stereo not given) | 0.51 | 0.87
O=C(c1cc([N+](=O)[O-])ccc1N1CCCCC1)N1CCCC1 | 0.01 | 1.8
Cc1nc(Nc2ccc(Cl)cc2)c2nnn(Cc3ccccc3)c2n1 | 2.1 | -0.14
Cc1nc(N2CCN(Cc3ccccc3)CC2)nc2c1CCC2 | 1.2 | -0.26
O=C(Nc1ccccc1C(=O)N1CCCCC1)c1ccco1 | 0.68 | 0.01
CCOc1ccc(-c2n[nH]c(C(=O)NN)c2C)cc1 | 2.9 | -0.48
Cn1c(/C(C#N)=C(\O)c2ccc([N+](=O)[O-])s2)nc2ccccc21 | 0.11 | -0.63
CN(C)CCNC(=O)c1ccc(CS(=O)(=O)c2ccc(Br)cc2)o1 | 0.55 | 2
Cn1cc(CN(CCO)Cc2cccs2)c(-c2ccccc2F)n1 | 1.4 | -0.99
CCS(=O)(=O)n1nc(-c2ccc(C)cc2)nc1N | 1.3 | -0.01
COC(=O)c1[nH]c2ccccc2c1NC(=O)C(C)N1CCOCC1 (stereo not given) | 0.81 | -0.67
Cc1c(C=O)c2ccccn2c1C(=O)c1ccc(Cl)c([N+](=O)[O-])c1 | 0.02 | -0.16
CC(=O)Nc1cccc(NC(=O)CSc2nnnn2Cc2ccccc2)c1 | 0.09 | 0.05
CC1CC(C)CN(S(=O)(=O)c2ccc(Cl)cc2)C1 (stereo not given) | 0.27 | 1
COc1ccc(NC(=O)COc2ncnc3ccccc23)cc1S(=O)(=O)N1CCOCC1 | 0.04 | 0.67
O=C(c1cc(C2CC2)on1)N1CCN(c2ccccc2)CC1 | 0.01 | 0.86
(list continues)
SMILES | KCNQ2 enhance | KCNQ2 enhance baseline
CCOc1ccc(-n2nnc3c(=O)n(CC(=O)Nc4cc(C)on4)cnc32)cc1 | 1.5 | -0.51
Cc1ccc(CNC(=O)C2CC(=O)N(C3CCCCCC3)C2)cc1 (stereo not given) | 0.94 | -0.5
Cc1ccc2oc(-c3ccc(C)c(NC(=O)Cc4cccs4)c3)nc2c1 | 1.8 | -1.2
O=C(c1ccc(NS(=O)(=O)c2cccc([N+](=O)[O-])c2)cc1)N1CCCCCC1 | 1.9 | 0
O=C(O)CN1c2cccc3cccc(c23)S1(=O)=O | 0.84 | 0.29
S=c1nc(-c2ccco2)[nH][nH]1 | 1.4 | 0.43
CCc1cccc(NC(=O)CCNS(=O)(=O)c2cc(Br)cnc2N)c1 | 3.1 | 0.1
CCOc1ccc2nc(/N=C/c3c(C)[nH]n(-c4ccccc4)c3=O)sc2c1 | 20* | 0.84*
Oc1ccc(/C=N/Nc2ccnc3cc(Cl)ccc23)c(O)c1 | 0.21 | 1.1
O=C(Cc1ccc([N+](=O)[O-])cc1)NC(C(=O)O)C(O)c1cccc([N+](=O)[O-])c1 (stereo not given) | 0.91 | -1.4
N#Cc1c(N)nc2c(c1N)CC(CO)O2 (stereo not given) | 0.61 | 2.1
Cc1nn(-c2ccc(C(=O)O)cc2)c(C)c1Cl | 1.3 | -0.01
CC(C)CC(CO)N1CCN(C(=O)c2cccc(Cl)c2)CCC1=O (stereo not given) | 0.24 | 0.17
C=CCOC(=O)/C(=C\c1ccccc1)NC(=O)c1ccco1 | 0.07 | -0.25
CCc1nnc(NC(=O)CCC(=O)N2CCN(Cc3ccccc3)CC2)s1 | 0.09 | 2.1
COC(=O)c1ccc(CO/N=C/c2ccccc2OC)cc1 | 0.07 | 1.3
Cc1nc(-c2ccc(NC(=O)CC(C)C)cc2)cs1 | 1.1 | -0.79
OCC[C@@H]1C[C@@H](O)[C@H](O)[C@]2(OCCc3ccccc32)O1 | 0.11 | 0.7
O=C(CCn1[nH]c(=O)c2ccccc2c1=O)OC1CCCCC1 | 2.3 | -0.55
CCNc1nc(N)nc(Oc2ccc(C(=O)OC)cc2)n1 | 0.14 | 0.28
Cc1cc(C)n(CC(C)NCc2cn[nH]c2-c2ccc(C)c(C)c2)n1 (stereo not given) | 0.13 | -1.4
O=C1C=C(N2CCOCC2)c2ccccc2C1=O | 0.4 | 0.11
CS(=O)(=O)N(CC(=O)NCc1ccco1)Cc1ccc(Cl)cc1 | 0.51 | -0.95
Cc1cc(=O)[nH]c(SCC(=O)c2ccccc2)c1C#N | 1.7 | 1

Structures listed so far that contain an aryl thioether with sulfur outside any ring:
SMILES | KCNQ2 enhance | KCNQ2 enhance baseline
Cc1cccc(NC(=O)CSc2nc(C)c(CC(=O)c3ccc(Br)cc3)c(C)c2C#N)c1C | 0.02 | -0.13
COC(=O)c1ccccc1NC(=O)CSc1ncccn1 | 1.1 | -0.02
COCCCn1c(SCC(=O)N2CCCC(C)C2)nnc1-c1ccco1 (stereo not given) | 0.18 | -2.4
CC(=O)Nc1cccc(NC(=O)CSc2nnnn2Cc2ccccc2)c1 | 0.09 | 0.05
Cc1cc(=O)[nH]c(SCC(=O)c2ccccc2)c1C#N | 1.7 | 1

(continued)
SMILES | KCNQ2 enhance | KCNQ2 enhance baseline
COc1cccc(NC(=O)N(Cc2ccco2)C(C)c2cccs2)c1 (stereo not given) | 0.15 | -1.1
O=C(Oc1cccc(C(=S)N2CCOCC2)c1)c1cc([N+](=O)[O-])cc([N+](=O)[O-])c1 | 0.88 | -1.1
O=C(CNS(=O)(=O)c1ccc(Br)s1)N1CCN(c2ncccn2)CC1 | 0.6 | -0.81
Cn1c(=NC(=O)c2ccccc2[N+](=O)[O-])sc2cccc(F)c21 | 1.2 | -0.68
COc1ccc(N(C(=O)CNC(=O)c2ccco2)C(C(=O)NC2CCCCC2)c2ccncc2)cc1 (stereo not given) | 0.65 | -0.64
Cc1cc(C)c(C#N)c(N2CCCC(C(N)=O)C2)n1 (stereo not given) | 1.6 | -1.2
C=CCc1cccc2cc(C(=O)NC3CCCCC3)c(=O)oc12 | 1.1 | -0.68
CCOC(=O)c1c(-c2ccc(C)o2)csc1NC(=O)CN1CCC(C(N)=O)CC1 | 1.9 | -1
COc1ccc(-c2nnsc2N2C(=O)c3ccccc3C2=O)cc1 | 1.4 | -0.92
CC1=C(C(=O)Nc2ccccc2)C(c2ccc(C)cc2)N=C(Nc2nc3ccccc3o2)N1 (stereo not given) | 0.16 | -0.24
CCOC(=O)c1c(C)nc2sc3c(c2c1-c1ccc(OC)cc1)NC(c1ccccc1)NC3=O (stereo not given) | 0.96 | -0.91
O=C(c1ccc([N+](=O)[O-])cc1)N(Cc1cccs1)C1CCS(=O)(=O)C1 (stereo not given) | 0.35 | -0.75

Profiles, looked up by structure.
COc1cccc(NC(=O)N(Cc2ccco2)C(C)c2cccs2)c1 (stereo not given) in the list: KCNQ2 enhance: 0.15; KCNQ2 enhance baseline: -1.1
Cc1cc(C)c(C#N)c(N2CCCC(C(N)=O)C2)n1 (stereo not given) in the list: KCNQ2 enhance: 1.6; KCNQ2 enhance baseline: -1.2

Next compounds.
SMILES | KCNQ2 enhance | KCNQ2 enhance baseline
CCC(=Cc1ccc(CC)cn1)CC | 0.6 | -0.04
CCc1ccc(NC(=O)c2cnn(-c3ccccc3)c2C)cc1 | 0.72 | 0.82
Cc1cc(C)c(NC(=O)CN2C(=O)NC3(CCCCC3)C2=O)c(Cl)c1 | 0.38 | -0.56
CCOc1ccc(-c2c(C(=O)N/N=C/c3ccc(OC)cc3)nnn2-c2nonc2N)cc1 | 1.4 | 0.4
CCc1cccc(Nc2c3c(nc4ncnn24)CCC3)c1 | 0.01 | 0.04
CCn1c(SCC(=O)Nc2ccc3c(c2)OCCO3)nnc1-c1ccccn1 | 0.04 | 0.31
Cc1c(NC(=O)c2csc3c2CCCC3)c(=O)n(-c2ccccc2)n1C | 0.38 | 2.7
O=C(CNS(=O)(=O)c1ccccc1)OCC(=O)c1ccccc1Cl | 0.13 | -0.34
Cn1c(/C=C/c2ccc([N+](=O)[O-])o2)nc2ccccc2c1=O | 0.01 | 0.43
Cc1cccn2c(=O)nc(SCC(=O)N3CCCCCC3)nc12 | 0.03 | -1.4
COc1cccc(C(=O)/C=C/Nc2ccc(S(=O)(=O)Nc3cnc4ccccc4n3)cc2)c1 | 1.1 | -0.05
Cc1oc(-c2ccccc2F)nc1CS(=O)(=O)CC(=O)N1CCCCCC1 | 0.8 | 1.1
O=C(CCC1CCN(Cc2ccc(C#CCCO)cc2)CC1)NC1CC1 | 0.66 | -1.6
CCc1cc(=O)oc2c3c(cc(OCC(=O)NCCC(=O)O)c12)OC(C)(C)CC3 | 1.6 | 0.88
CC(NCCc1ccc(O)cc1)C(O)c1ccc(O)cc1 (stereo not given) | 3.5 | -1.5
O=C(NCC(=O)N(c1ccccc1F)C(C(=O)NC1CCCC1)c1ccncc1)c1ccco1 (stereo not given) | 0.57 | 1.3
CCOC(=O)N1CCN(c2nc3ccc(C)cc3n3cnnc23)CC1 | 1 | 0.02
